Cruzain noTriton – qHTS Assay for Promiscuous and Specific Inhibitors of Cruzain (without detergent). Cruzipain (Trypanosoma cruzi), P25779. purified cruzain, Z-FR-AMC fluorescence, no detergent. Potency, µM, without a hit: max response, negative = inhibition, actives largely listed as inhibitors. 2.3% of 200,000 active;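 note: plate controls were enzyme without inhibitor for no effect and buffer without enzyme for full effect; nearly all actives have a fitted effect of over 40% in size; top concentration of the series not given in the record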
Target sequence (P25779 123-467 limits assumed): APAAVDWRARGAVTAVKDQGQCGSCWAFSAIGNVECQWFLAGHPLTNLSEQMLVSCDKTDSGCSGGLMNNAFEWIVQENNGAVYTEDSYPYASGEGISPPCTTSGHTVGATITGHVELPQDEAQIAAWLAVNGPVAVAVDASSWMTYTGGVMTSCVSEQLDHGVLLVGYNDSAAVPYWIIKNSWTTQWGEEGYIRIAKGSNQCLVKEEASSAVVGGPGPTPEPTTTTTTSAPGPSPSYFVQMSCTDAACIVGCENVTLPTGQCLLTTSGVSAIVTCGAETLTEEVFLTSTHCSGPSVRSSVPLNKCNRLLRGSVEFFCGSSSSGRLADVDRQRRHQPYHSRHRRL
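Detergent-free condition (0.00005% Triton X-100) in acetate buffer pH 5.5 with DTT. 1.5 nM enzyme and compound were pre-mixed 15 min, then 2 uM Z-FR-AMC substrate added; reaction progress from fluorescence change between first and third reads (60 s).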
Cruzain inh Det – qHTS Assay for Promiscuous and Specific Inhibitors of Cruzain (with detergent) | Potency, µM, for the others: max response, negative = inhibition, hits mostly inhibitors | 0.43% of 200,000 active | purified cruzain, Z-FR-AMC fluorescence, 0.01% Triton;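 note: plate controls were neutral wells for no effect and buffer without enzyme for full effect; nearly all actives have a fitted effect of over 40% in size; top concentration of the series not given in the record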
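Steps: dispense cruzain (1.5 nM final) in acetate buffer pH 5.5 with DTT and 0.01% Triton X-100; pin-transfer compounds; incubate 15 min RT; add Z-FR-AMC (2 uM final); read fluorescence every 30 s, using the 60 s intensity change.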
LASV entry inh – qHTS for Inhibitors of binding or entry into cells for Lassa Virus; AID 540256, 2011; Potency, µM (highest dose often 37.9 µM), for the others: at the top dose activity change, negative = inhibition, most hits filed as inhibitors; Lassa virus pseudotype entry inhibition, cell reporter; control for the full effect not named in the record; 1.2% of 300,000 active; active means well fitted inhibition curve with a large enough effect; inconclusive means small, poorly fitted or top-dose-only effect, or effect the other way; inactive means flat fitted curve, though single readings scatter; tested in HEK293 cells; note: % is set by controls: 0 for no effect and ±100 for the full control effect; nearly all actives have a fitted effect of over 50% in size; luciferase read-out
2A StopGo – High Throughput Screening for Foot and Mouth Disease Virus Antivirals. 1.2% of 410,000 active. human cells with a luciferase reporter of 2A StopGo recoding; control for the full effect not named in the record. Potency, µM (doses to about 57.9 µM), for inactives: top-dose signal change, negative = less light. AID 1159524, 2015; active = well fitted falling curve with a large enough effect; inconclusive = small, poorly fitted or top-dose-only effect; inactive = no such curve, though single readings can be large or run the other way; tested in HEK293T cells; note: % is set by controls: 0 for no effect and ±100 for the full control effect; nearly all actives have a fitted effect of over 45% in size; luciferase light after 4 h
SARS PLpro yeast – qHTS of Yeast-based Assay for SARS-CoV PLP | S. cerevisiae expressing SARS-CoV PLpro, growth rescue; control for the full effect not named in the record | Potency, µM (titrated, usually from 32.9 µM), inactives show at the top dose activity, positive = growth rescue | 0.19% of 330,000 active; active means well fitted rising curve with a large enough effect; inconclusive means small, poorly fitted or top-dose-only effect; inactive means no such curve, though single readings can be large or run the other way; note: 0% is about no effect; nearly all actives have a fitted effect of over 55% in size; growth read by luminescence after 48 h
NS1 inh – qHTS Assay for Inhibitors of Influenza NS1 Protein Function | 0.4% of 270,000 active | S. cerevisiae slowed by influenza A NS1, growth recovery by OD600 | Potency, µM (series often up to 46.1 µM), without a hit: at the highest dose activity, positive = more growth; active means well fitted rising curve with a large enough effect; inconclusive means small, poorly fitted or top-dose-only effect; inactive means no such curve, though single readings can be large or run the other way; note: nearly all actives have a fitted effect of over 50% in size
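Recovery from NS1-induced slow growth read by OD600 in budding yeast switched to galactose assay medium (pH 6.0, -URA) at 1:100 dilution. Compound 23 nl per well; the matching strain lacking NS1 serves as control.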
MARV entry inh – qHTS for inhibitors of binding or entry into cells for Marburg Virus; 1.8% of 300,000 active; Potency, µM (titrated, usually from 37.8 µM), without a hit: at the highest dose activity change, negative = inhibition, hits mostly inhibitors; Marburg virus pseudotyped entry inhibition, cell reporter; control for the full effect not named in the record; about a third of the inactives were read at about 46 µM; active = well fitted inhibition curve with a large enough effect; inconclusive = small, poorly fitted or top-dose-only effect, or effect the other way; inactive = flat fitted curve, though single readings scatter; tested in HEK293 cells; about a fifth of its hits are not listed in these tables; note: % is set by controls: 0 for no effect and ±100 for the full control effect; luciferase read-out
RE007 growth inh – qHTS Assay for Inhibitors of the HIV-1 protein Vpr; S. pombe RE007 Vpr strain, BacTiter-Glo ATP luminescence, 24 h; control for the full effect not named in the record; AID 651644, 2012; Potency, µM (titrated, usually from 92.2 µM), for inactives: at the top dose activity change, negative = less growth; 0.21% of 360,000 active; active = well fitted falling curve with a large enough effect; inconclusive = small, poorly fitted or top-dose-only effect; inactive = no such curve, though single readings can be large or run the other way;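 note: % is set by controls: 0 for no effect and ±100 for the full control effect; nearly all actives have a fitted effect of over 50% in size; the assay follows cell death caused by Vpr and the record does not say whether a fall means rescue or toxicity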
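Fission yeast RE007 carrying one integrated HIV-1 vpr copy, seeded at OD 0.01 in PMG+AL medium with 23 nL pinned compound. Grown 24 h at 30 degrees; viability read by BacTiter-Glo luminescence after 5 min.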
The depositor's hits bear a star; ? = inconclusive; · = not tested or not shown; [ ] = another dose, or the depositor's remark. Unless noted, calls come from the whole dose curve; as a rule, active = well fitted curve in the direction sought with a large enough effect; inconclusive = small, poorly fitted or top-dose-only effect, or another doubt; inactive = no such curve, though single readings can be large; an effect the other way counts as inactive or inconclusive. Potency is the fitted concentration of half-maximal effect.

SMILES	Cruzain noTriton	Cruzain inh Det	LASV entry inh	2A StopGo	SARS PLpro yeast	NS1 inh	MARV entry inh	RE007 growth inh
Cc1cccc(NCC(=O)N/N=C\c2cccc(Oc3ccccc3)c2)c1	5%	-5.1%	?	?	-24%	3%	?	-10%
N=C(N)c1ccc(O)cc1	·	·	0%	-12%	-2%	-1%	16%[46.1 µM]	5%
CC(Oc1ccc(Cl)cc1Cl)c1ccnc(N)n1 (configuration not stated)	·	·	-5%	-13%	-4%	-55%	-16%[46.1 µM]	6%
Cc1ccc(CN2CCNC(=O)C2CC(=O)O)o1 (configuration not stated)	-3%	9.5%	·	2%	-3%	2%	·	12%
CCn1cc(C(=O)N2CCCCC2)c2ccccc21	·	·	-7%[46.1 µM]	4%	0%	4%	?	10%
Cc1ccc(OCC(=O)Nc2ccc(NC(=O)c3cccs3)cc2)c(C)c1	·	·	?	9%	-2%	-3%	?	-16%
COC(=O)c1ccc(OC)c(OC)c1Cl	·	·	-5%	2%	0%	3%	10%	-7%
O=C(CSc1n[nH]c(-c2ccccn2)n1)Nc1cccc(Cl)c1	·	·	?	-20%	0%	-9%	?	8%
Cc1ccc(-c2cn3nc(-c4ccccc4)c(-c4ccccc4)nc3n2)cc1	·	·	?	6%	0%	1%	?	2%
Cc1nccn1CC(=O)N/N=C/c1cccs1	·	·	5%	-8%	-1%	-4%	10%	1%
O=C(O)Cc1ccc(NCc2ccccc2Cl)cc1	·	·	-2%	22%	2%	·	8%	-25%
COc1cccc(/C=C2\SC(=S)N(CCCC(=O)N3CCCC3)C2=O)c1	·	·	-24%[46.1 µM]	-6%	0%	-20%	?	-13%
CCOC(=O)Cc1csc(NC(=O)CSc2nnc(-c3ccncc3)n2Cc2ccco2)n1	·	·	-21%	?	·	44%	-29%	1%
CC1=NNC(=O)C1CCC(=O)N/N=C/c1ccccc1 (configuration not stated)	·	·	?	37%[activator]	1%	-1%	-3%	2%
Cc1c(C2=CCN(S(=O)(=O)c3ccc(Br)cc3)CC2)c2ccccc2n1C	10µM*	-2.4%	0%	-23%	-6%	-9%	-2%	-6%
C/C(=N\NC(=O)C(=O)Nc1cc(Cl)ccc1Cl)c1ccncc1	-29%	2.1%	8%	-7%	2%	4%	9%	-10%
Cc1ccc(SC(C)C(=O)NCc2cccnc2)cc1 (configuration not stated)	2%	5.1%	2%	-7%	-2%	0%	17%	17%
Cc1ccccc1CSc1nnc2[nH]c(=O)cc(-c3ccccc3)n12	-4%	0.9%	-2%[46.1 µM]	-10%	·	·	·	·
Cc1nn(-c2ccccc2)c(C)c1/C=N/n1c(-c2ccc(C(C)(C)C)cc2)n[nH]c1=S	-9%	4.6%	0.11µM*	-8%	1%	?	-26%	-11%
Cc1cc(C)cc(N(CC(=O)NCc2ccc3c(c2)OCO3)C(=O)CCC(=O)Nc2ccccn2)c1	20%	-3.1%	10µM*	?	-3%	1%	?	-5%
Cc1cc(C)c(S(=O)(=O)N2CCCOC2CNC(=O)C(=O)NCCCn2ccnc2)c(C)c1 (configuration not stated)	0%	0.1%	-6%	-15%	?	0%	-3%	8%
O=C(N/N=C/c1ccccc1OCc1ccccc1Cl)c1cccnc1	·	·	?	-17%	-9%	·	?	-4%
Cc1ccc(Nc2nc(Oc3ccc(=O)[nH]n3)nc(N(C)C)n2)cc1	-2%	-4.0%	9%	-28%	·	-1%	-10%	9%
COC(=O)c1ccsc1NS(=O)(=O)c1ccccc1	·	·	21%[46.1 µM]	-2%	0%	-39%	4%[46.1 µM]	-1%
Cc1nn(CC(=O)NCc2ccc(Cl)cc2)c(=O)c2cc3sccc3n12	-14%	-0.5%	·	-7%	·	·	-11%[46.1 µM]	·
Cc1cccc(NC(=O)NCc2ccccn2)c1	0%	-0.6%	16%	37%[activator]	1%	1%	11%	20%
NC(=O)C1(N2CCCCC2)CCN(C(=S)Nc2cc(F)cc(F)c2)CC1	·	·	-21%[46.1 µM]	-8%	1%	0%	1%[46.1 µM]	5%
Cc1ccc2c(c1)C(c1ccccc1)N(C(=O)c1ccc(S(=O)(=O)N3CCCCC3)cc1)CC(=O)N2 (configuration not stated)	-8%	-4.1%	?	-25%	·	·	·	·
CC(=O)Nc1ccc(S(=O)(=O)NCCC(=O)OCC(=O)c2cccc(Br)c2)cc1	·	·	0%	-15%	-4%	·	-17%	2%
C/C(=N\Nc1nc2ccccc2[nH]1)c1ccc(Cl)s1	-11%	-27%	?	?	-1%	21%	?	?
COc1ccc(-c2cc3ccc(O)cc3oc2=O)cc1OC	·	·	-1%[46.1 µM]	15%	·	-7%	11%[46.1 µM]	-26%
CCCN1C(=O)c2[nH]nc(-c3ccc(OC)cc3)c2C1c1ccccn1 (configuration not stated)	-26%	0.1%	0%[46.1 µM]	-17%	·	·	-15%[46.1 µM]	·
CCCCN=C(C)C1=C(O)CSC1=O	4%	0.8%	7%	-3%	-1%	-8%	22%	7%
Nc1nc(SCC(=O)Nc2cccc(Oc3ccccc3)c2)n[nH]1	-8%	-3.2%	10%	-10%	10%	17%	-6%	6%
O=C(O)C1C2CCCCC2=C2CCCCC2C1C(=O)O (configuration not stated)	0%	1.2%	5%	8%	-7%	5%	5%	-10%
COc1ccc(C2=NS(=O)(=O)N(C)C(C(=O)N3CCOCC3)=C2)cc1	·	·	·	-12%	5%	11%	·	-16%
O=S(=O)(/C=C/c1ccccc1)NCc1ccccc1Cl	0%	-3.4%	10%	76%[activator]	-29%	-17%	19%	31%
CCNc1nc(Oc2ccc(C(=O)OCC)cc2)nc(SC)n1	-13%	-5.3%	-1%	0%	-10%	-32%	-12%	25%
O=C(Nc1ccc(SC(F)(F)F)cc1)c1ccccn1	·	·	?	0%	-3%	-20%	?	?
CCOC(=O)Cc1csc(NC(=O)CN2C(=O)c3ccccc3C2=O)n1	·	·	-1%	8%	0%	-2%	3%	6%
O=C(COC(=O)CNC(=O)c1ccc(Cl)cc1)Nc1ccc2c(c1)OCCO2	10µM*	14µM*	5%	-5%	-5%	19%	1%	1%
O=C(NCC(=O)N1CCC2(CC1)NCCc1[nH]cnc12)c1ccccc1F	·	·	·	0%	-2%	-7%	·	-11%
COc1ccc(CCNC(=O)Cn2nnc(-c3cccc(OC)c3OC)n2)cc1OC	-1%	-1.9%	-1%	-4%	-3%	-4%	24%	-1%
CCCCNC(=O)c1ccc2c(c1)NC(=O)C(CS(=O)(=O)Cc1ccc(C)cc1)N2 (configuration not stated)	0%	-2.3%	8%[46.1 µM]	-1%	·	·	·	·
Cc1nn(C2CC(O)C(O)C(CO)O2)c(=O)[nH]c1=O (configuration not stated)	·	·	-2%	-4%	·	·	8%	3%
C=CCn1c(-c2cccc3ccccc23)n[nH]c1=S	1%	-1.3%	-3%	7%	?	-1%	?	3%[3.69 µM]
O=C(NCCc1csc(-c2ccc(F)cc2)n1)c1cccc(F)c1	-5%	-18%	-17%[46.1 µM]	?	·	·	·	·
COc1ccccc1NC(=O)Cn1c(=O)oc2cc(S(=O)(=O)N3CCCC3)ccc21	·	·	·	-13%	3%	-8%	·	-5%
COc1ccc(C(=O)N2CCN(C(=O)c3ccncc3)CC2)cc1	-8%	1.3%	5%	1%	3%	6%	?	-6%
O=C1Nc2ccccc2Oc2cc(Oc3ccccc3)ccc21	-28%	-11%	-25%[46.1 µM]	3%	4%	·	-6%[46.1 µM]	·
COc1ccc(NC(=O)CC2SC3=NCCN3C2=O)cc1 (configuration not stated)	·	·	18%	-2%	0%	5%	-2%[46.1 µM]	9%
COC(=O)NNC(=O)c1ccc(Cl)cc1Cl	14%	0.3%	16%	-18%	13%	2%	?	18%
COc1ccc(CC(=O)Nc2cccc(C)n2)cc1OC	-5%	0.1%	-4%	-14%	1%	-4%	10%[46.1 µM]	-10%
COc1ccccc1-c1c(C(F)(F)F)oc2cc(OCC(=O)Nc3cc(C)ccc3C)ccc2c1=O	1%	-6.6%	·	·	17%	22%	2%	·
CCCNc1nc2c(c(=O)n(C)c(=O)n2C)n1CCC(C)C	15%	1.3%	-28%	?	20%	1%	-20%	4%
CC(C)Oc1ccc(C(=O)N2CCN(c3nc4c(F)cc(F)cc4s3)CC2)cc1	-1%	-0.1%	17%[46.1 µM]	0%	·	·	·	·
COc1ccc(-c2nn(-c3ccccc3)cc2C(=O)Nc2ccc(C(=O)O)cc2)cc1	·	·	·	5%	4%	4%	4%[46.1 µM]	13%
CCOC(=O)c1cnc2ccccc2c1Nc1cccc(C(=O)O)c1	·	·	11%	6%	1%	·	1%[46.1 µM]	4%
CC(=O)N1CCC(O)(c2cccc(C(F)(F)F)c2)CC1	5%	0.4%	0%	·	2%	-3%	-9%	5%
CCNC(=O)NC(=O)C(C)OC(=O)c1c(C)nn(Cc2ccccc2)c1Cl (configuration not stated)	-5%	-0.6%	?	-29%	4%	-2%	?	23%
(continued)
SMILES	Cruzain noTriton	Cruzain inh Det	LASV entry inh	2A StopGo	SARS PLpro yeast	NS1 inh	MARV entry inh	RE007 growth inh
CCOC(=O)c1c(C)n(-c2ccccc2)c2ccc(OC(=O)c3c(F)cccc3F)cc12	5%	-0.2%	6%[46.1 µM]	-12%	·	·	·	·
CC(=O)Oc1ccccc1-c1nc(/C=C/c2ccccc2)no1	·	·	?	-15%	-3%	-15%	0%	-1%
O=C(Nc1cccc2ccccc12)N1CCOCC1	-1%	0.6%	0%	-8%	-1%	7%	-1%	-13%
Cc1cc(NC(=O)CCC(=O)N(CC(=O)NC2CCCC2)c2ccc(F)cc2)no1	·	·	·	9%	0%	5%	0%[46.1 µM]	-18%
CC1=C(C(=O)Nc2cc(C)ccn2)C(c2ccc(C)cc2)C2=C(CCCC2=O)N1 (configuration not stated)	7%	-3.0%	19%	3%	0%	-3%	11%	3%
